# Compound activity (PubChem BioAssay)
# KCNQ2 block: KCNQ2 channel blockers in CHO-K1 cells – cell-based, FluxOR thallium flux, B-score, primary screen (AID 2156); O88943; 20 min; stronger effect = lower value; only compounds with negative scores are shown here; some inactives read as strong as hits; B-score at 10 µM; actives 1.1% (n = 310,000);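 active = fluorescence ratio B-score at most minus 3 library SDs, with starting brightness B-score within 2 library SDs, cut at about -5.5 in these data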
# Target sequence (O88943 whole entry, looked up): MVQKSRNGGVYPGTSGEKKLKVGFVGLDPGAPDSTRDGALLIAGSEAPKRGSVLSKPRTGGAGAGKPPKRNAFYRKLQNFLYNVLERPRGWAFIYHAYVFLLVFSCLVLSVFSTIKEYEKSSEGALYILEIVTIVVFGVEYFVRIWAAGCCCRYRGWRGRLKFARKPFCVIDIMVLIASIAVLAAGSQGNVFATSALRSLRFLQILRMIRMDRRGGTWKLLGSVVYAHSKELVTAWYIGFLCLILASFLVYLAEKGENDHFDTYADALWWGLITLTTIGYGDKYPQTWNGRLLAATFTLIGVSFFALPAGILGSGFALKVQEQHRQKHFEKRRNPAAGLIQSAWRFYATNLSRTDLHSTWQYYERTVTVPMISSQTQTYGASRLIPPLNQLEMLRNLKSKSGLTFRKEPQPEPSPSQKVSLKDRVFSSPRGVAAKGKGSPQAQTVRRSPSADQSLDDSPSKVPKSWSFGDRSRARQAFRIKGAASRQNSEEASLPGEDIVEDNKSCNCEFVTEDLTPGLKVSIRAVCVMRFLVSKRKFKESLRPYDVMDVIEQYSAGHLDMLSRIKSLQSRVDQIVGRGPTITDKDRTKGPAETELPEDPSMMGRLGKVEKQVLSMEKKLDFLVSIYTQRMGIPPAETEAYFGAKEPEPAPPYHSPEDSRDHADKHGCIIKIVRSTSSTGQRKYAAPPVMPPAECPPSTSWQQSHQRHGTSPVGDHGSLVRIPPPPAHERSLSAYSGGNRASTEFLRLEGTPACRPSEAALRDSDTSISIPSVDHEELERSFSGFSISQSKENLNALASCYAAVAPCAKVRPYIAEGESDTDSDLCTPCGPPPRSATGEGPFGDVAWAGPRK
# KCNQ2 block baseline: second read-out of KCNQ2 block, no call of its own (marks repeat the call); B-score; measured here: initial fluorescence intensity artifact check;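 brightness before thallium and not channel activity; 0 = typical well and far values either way flag optical interference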
# * marks the source's active call; other numbers are inactive results; i = inactive. A portion of the library; rates above refer to the full screens.
KCNQ2 block,KCNQ2 block baseline,mol
i,1.75,O=C(c1ccccc1N1CCOCC1)N1CCCC(Nc2ccc(F)cc2)C1 (configuration not stated)
i,-0.5,Cn1c(S(=O)(=O)c2ccc([N+](=O)[O-])cc2)nc(Br)c1Br
i,-0.25,CC(C)CC(c1nnnn1CCc1ccccc1)N1CCN(C(=O)c2ccco2)CC1 (configuration not stated)
i,0.25,Cn1cnnc1SCC(C)(C)NS(=O)(=O)c1ccc(Cl)cc1
i,0.46,COc1cc(/C=C(\C#N)C(=O)Nc2cccc3ncccc23)cc(OC)c1OC
i,-0.81,Cn1c(=O)[nH]c(=O)c2c1nc(NN)n2CCOc1ccccc1
i,-0.28,COc1ccccc1NC(=O)NC1(C(=O)N2CCCCC2)CCCCC1
i,0.05,Clc1ccc2nc(SCc3nnc(-c4ccccc4)o3)[nH]c2c1
i,0.48,CCOc1cc(NC(=S)NCC2CCCO2)c(OCC)cc1NC(=O)c1ccc(OC)cc1 (configuration not stated)
i,-1.31,COc1ccc(C(=O)NC(=S)Nc2ccccc2F)cc1
i,1.59,COCCCC1CCN(C(=O)c2cc(COc3cc(C)ccc3C)on2)CC1
i,-0.18,COc1cc(/C=C/C(=O)N2CCCc3ccccc32)cc(OC)c1OC
i,-0.14,CC(C)(C)OC(=O)N1CCN(C(=O)[C@H](Cc2ccc(O)cc2)n2cc(CCO)nn2)CC1
i,0.58,O=C(COC(=O)C1CCC1)NCc1ccccc1Cl
i,1.51,COc1ccc(NC(=O)NC2CCCc3ccccc32)c(OC)c1 (configuration not stated)
i,-0.01,Cc1ccc(-c2cc3ccccc3nc2N2CCOCC2)cc1
i,-0.64,COc1ccc(C(C)=O)cc1CS(=O)(=O)CC(=O)O
i,-2.51,CCOc1ccccc1CN1CCC(n2nccc2NC(=O)CCCc2ccccc2)CC1
i,-2.22,Cc1ccc(NC(=O)NCCN2CCCCC2)cc1
i,0.64,Cc1cccc(C(=O)NCC(=O)OCC(=O)N2CC3(C)CC2CC(C)(C)C3)c1 (configuration not stated)
i,-0.17,CCCNC(=O)CN(C)CC(=O)Nc1ccccc1C#N
i,-0.43,CC(Sc1nnc(-c2ccc(Cl)cc2)n1N)C(=O)NCC1CCCO1 (configuration not stated)
-7.05*,-0.04*,COc1ccc(OC)c(C2CC(c3c(-c4ccccc4)c4cc(Cl)ccc4[nH]c3=O)=NN2S(C)(=O)=O)c1 (configuration not stated)
i,-1.04,O=C(Cc1ccccc1)N1CCC(O)(c2cccnc2)CC1
i,0.57,Cc1cc(C(=O)N/N=C/c2ccc3ccccc3c2)n[nH]1
i,0.21,CC(=O)c1sc(NS(=O)(=O)c2ccc(C)cc2)nc1-c1ccccc1
i,1.32,Cc1ccccc1-n1nnnc1SCC(=O)c1c(N)n(C)c(=O)n(C)c1=O
i,0.32,Cc1ccc(C(=O)C(C)OC(=O)C2CC(=O)N(C3CCCCC3)C2)cc1 (configuration not stated)
i,-0.38,O=C(NCc1ccccn1)c1cccc(S(=O)(=O)Nc2ccc(SC(F)F)cc2)c1
i,0.45,Clc1ccc(CSc2snnc2-c2ccccc2)c(Cl)c1

# 3 of the entries above in order of the KCNQ2 block baseline value, highest first.
KCNQ2 block,KCNQ2 block baseline,mol
i,0.57,Cc1cc(C(=O)N/N=C/c2ccc3ccccc3c2)n[nH]1
i,0.21,CC(=O)c1sc(NS(=O)(=O)c2ccc(C)cc2)nc1-c1ccccc1
-7.05*,-0.04*,COc1ccc(OC)c(C2CC(c3c(-c4ccccc4)c4cc(Cl)ccc4[nH]c3=O)=NN2S(C)(=O)=O)c1 (configuration not stated)

# (listing goes on)
KCNQ2 block,KCNQ2 block baseline,mol
i,3.54,CCCOc1ccc(C(=O)c2nc3c(n2O)CCCC3)cc1
i,1.09,CCC1=NN(C(=O)CCc2ccccc2)C(O)(C(F)(F)F)C1 (configuration not stated)
i,0.84,COc1cc2ccccc2cc1C(=O)N/N=C/c1ccc2c(c1)OCO2
i,-0.15,CC(C)c1ccc(NC(=O)CNC(=O)Cn2cnc3ccccc3c2=O)cc1
i,-1.44,O=C(Nc1ccc(S(=O)(=O)Nc2ncccn2)cc1)C1CC(=O)N(c2ccc(Cl)cc2)C1 (configuration not stated)
i,-0.59,O=C(CN1CCc2ccccc21)NC(=O)NCc1ccco1
i,-0.37,CCn1c(=O)cc(SCC(=O)NCc2ccc(C)o2)c2ccccc21
i,-0.5,O=C(NCCc1ccccc1)/C(=N\O)c1ccccc1
i,1.91,c1ccc(C2CNCCc3ccccc32)cc1 (configuration not stated)
i,-0.81,O=C(NCCc1c[nH]c2ccccc12)c1ccc(F)cc1F
i,1.08,COc1ccc(-n2c(C)cc(/C=C/c3nc(O)c([N+](=O)[O-])c(=O)[nH]3)c2C)cc1
i,-0.61,COCCc1nc2ccc(C(=O)N3CCCC(CCCO)C3)cc2o1 (configuration not stated)
i,-0.05,CC(=O)N(c1c(C)n(C)n(-c2ccccc2)c1=O)C1(C(=O)NC2CCCC2)CCCCC1
i,2.46,CCCCC1=CC2=C(c3ccco3)C(=O)C(C)(OC(=O)c3ccc(OC)cc3)C(=O)C2=CN1CCc1ccccn1 (configuration not stated)
i,-0.41,COc1ccc2[nH]c(=O)c(CNc3ccccc3OC)cc2c1

# Brought forward from above: 3 compounds, followed by the next part.
KCNQ2 block,KCNQ2 block baseline,mol
i,-0.05,CC(=O)N(c1c(C)n(C)n(-c2ccccc2)c1=O)C1(C(=O)NC2CCCC2)CCCCC1
i,2.46,CCCCC1=CC2=C(c3ccco3)C(=O)C(C)(OC(=O)c3ccc(OC)cc3)C(=O)C2=CN1CCc1ccccn1 (configuration not stated)
i,-0.41,COc1ccc2[nH]c(=O)c(CNc3ccccc3OC)cc2c1
i,-1.64,FC(F)(F)c1cc(-c2ccccc2)nc(-n2cc(Cl)cn2)n1
i,-2.03,Cc1ccccc1S(=O)(=O)Cc1ccc(C(=O)NCCN2CCCCC2C)o1 (configuration not stated)
i,0.73,CCCCCc1ccc(-c2cn(Cc3cccc(OC)c3)nn2)cc1
i,-0.39,CC1=Nc2ccccc2/C1=C/c1c(N)n2c(S(=O)(=O)C(C)C)nsc2nc1=O
i,-0.48,CCOc1ccc(N(CC(=O)Nc2cccc(Br)c2)S(C)(=O)=O)cc1
i,0.75,COc1ccc(OCCCN2CCc3ccccc3C2)cc1
i,-0.55,O=C(c1cnn2c(C(F)(F)F)cc(-c3cccs3)nc12)N1CCN(C(c2ccccc2)c2ccccc2)CC1
i,-2.06,O=C(CCc1nc2ccccc2s1)NCc1ccccc1F
i,-0.02,COc1nccnc1NS(=O)(=O)c1ccc(NC(=S)NC(=O)/C=C/c2ccc(F)cc2)cc1
i,0.48,CC1CN(C(=O)N2c3ccccc3Sc3ccccc32)C(C)CC1=O (configuration not stated)
i,-0.02,COc1ccc(CC(=O)NC(C)c2nnc(SCC(=O)Nc3ccccc3F)n2C)cc1 (configuration not stated)
i,1.48,CNC(=O)/C(C#N)=C/c1ccc(-c2nc3ccccc3s2)o1
i,-0.22,CCOC(=O)C1(Cc2cccc(Cl)c2)CCCN(C(=O)c2ccc(COC)s2)C1 (configuration not stated)
i,-0.54,Cc1cc(C)cc(N2C(=O)CN(Cc3ccccc3)C2=S)c1
i,-0.16,O=C(CO/N=C/c1cccc([N+](=O)[O-])c1)NC1CCCCCC1
i,-0.92,COc1ccc(CNc2nc3ccccc3n2Cc2ccc(Cl)cc2)cc1OC
i,0.13,C=C/C(C)=C/CC1C(=C)CCC2C(C)(C(=O)O)CCCC12C (configuration not stated)
i,1.82,CC(=O)NC(c1ccc([N+](=O)[O-])cc1)c1c(O)ccc2ccccc12 (configuration not stated)
i,3.62,Cc1nn(CC(=O)NCCCN2CC(C)CC(C)C2)c(=O)c2cccn12 (configuration not stated)
i,-4.77,CC1Cc2ccccc2N1C(=O)CO/N=C/c1ccccc1OC(F)F (configuration not stated)
i,-0.32,Cc1[nH]c(C)c(S(=O)(=O)N(Cc2ccccc2)C(C)(C)C)c1C(=O)N1CCCC1
i,1.67,CC(=O)c1c(-c2ccc(C)cc2)nc2c3ccccc3ccn12
i,2.06,CC(C)=CC(=O)N1CCC(N2CCC(C(=O)N3CCOCC3)CC2)CC1
i,0.04,c1ccc(-n2c(-c3ccco3)nnc2N2CCOCC2)cc1
i,-0.41,Cn1cnc2c(N3CCCCC3)nccc21
i,0.5,COC(=O)c1cc(S(=O)(=O)N2CCCC2=O)c(Cl)cc1Cl
i,-1.34,O=Cc1sc(N2CCOCC2)nc1-c1ccccc1
i,0.31,Cc1[nH]n(-c2cccc3ccccc23)c(=O)c1/C=N/NC(=O)c1cccc([N+](=O)[O-])c1
i,0.46,CCc1nnc2sc(-c3cc(-c4ccccc4)nc4ccccc34)nn12
i,-3.38,CCn1c(NCc2ccccc2Cl)nc2ccccc21
i,-1.04,CCC(=O)Oc1ccc(/C(CC)=C(\CC)c2ccc(OC(=O)CC)cc2)cc1
i,-1.04,CN(C)C(=O)c1cc(Cl)ccc1Sc1cc(Cl)ccc1Cl
-7.77*,3.16*,Cc1cccc(-c2nc(CS(=O)CC(=O)N3CCc4ccccc4C3)c(C)o2)c1 (configuration not stated)
i,0.68,CC(C)Sc1nnc(CNC(=O)C23CC4CC(CC(C4)C2)C3)n1Cc1ccccc1
i,0.02,CSc1ccc(N2CCN(CCCNC(=O)Nc3ccccc3F)CC2)cc1
i,2.3,O=C(CCCN1C(=O)c2ccccc2C1=O)Nc1ccc2c(c1)OCCO2
i,0.62,CCOC(=O)C1(Cc2cccc(OC)c2)CCN(Cc2ccc(C)s2)CC1
i,-0.79,O=C(CN1CCCC1)Nc1ccccc1C(=O)c1ccccc1
i,-1.13,O=C(NC1CCCC1)C1CCN(C(=O)c2ccc(Cl)cc2Cl)CC1
i,0.55,Cc1ccc2c(c1)nnn2C1CCN(CC(=O)NCCc2ccccc2)CC1
i,-1.25,COc1ccccc1NC(=O)C(C)N1C(=O)c2ccccc2C1=O (configuration not stated)
i,-1.24,COc1ccccc1CNC(=O)c1ccc(C)s1
i,-1.02,CCOc1ccc(-n2cc(C(=O)NC(C)C)c3cc(OC)c(OC)cc3c2=O)cc1
i,-2.09,O=C(/C=C/c1ccccc1[N+](=O)[O-])c1ccccc1Br
i,0.08,Cn1c(SCC(=O)N2CCOCC2)nnc1-c1cnccn1

# Random excerpt: five compounds from above
KCNQ2 block,KCNQ2 block baseline,mol
i,0.08,Cn1c(SCC(=O)N2CCOCC2)nnc1-c1cnccn1
i,0.62,CCOC(=O)C1(Cc2cccc(OC)c2)CCN(Cc2ccc(C)s2)CC1
i,-1.04,CN(C)C(=O)c1cc(Cl)ccc1Sc1cc(Cl)ccc1Cl
i,-1.13,O=C(NC1CCCC1)C1CCN(C(=O)c2ccc(Cl)cc2Cl)CC1
i,-1.24,COc1ccccc1CNC(=O)c1ccc(C)s1

# The list continues:
KCNQ2 block,KCNQ2 block baseline,mol
i,-2.51,O=C1C=C(c2ccc(Cl)cc2)C(=O)N1Nc1ccccc1
i,0.01,COc1ccc(CN=C2NN=C(c3ccc(Cl)cc3)CS2)cc1
i,-1.64,COc1ccc(OC)c(/C=N/NC(=O)c2csc3ccccc23)c1
i,0.24,CCc1ccc(/C=C2\SC(=S)N(CCCC(=O)Nc3ccccn3)C2=O)cc1
i,-0.04,COc1cc(OC)cc(C(=O)NCC(=O)OCC(=O)N2CCc3ccccc32)c1
i,0.34,CCOC(=O)C1=C(N)OC2=C(C(=O)CC(C)(C)C2)C1c1ccccc1OC (configuration not stated)
i,-0.01,COc1ccc(C2c3c(-c4cc(Cl)c(C)cc4O)n[nH]c3C(=O)N2Cc2cccnc2)cc1OC (configuration not stated)
i,-0.76,c1ccc(N(c2ccccc2)c2nc(-n3ccnc3)nc(-n3ccnc3)n2)cc1
i,3.09,O=C(N/N=C/c1ccc(OC(F)F)cc1)c1ccc(Br)cc1
i,-0.03,Cc1ccc(C)c(NC(=O)Cn2nnc(C(=O)Nc3c(C)cccc3C)c2N)c1
i,-1.09,Cc1ccc(N2CC(C(=O)Nc3nnc(SCC(=O)NCC4CCCO4)s3)CC2=O)cc1C (configuration not stated)
i,-0.01,Cc1cccc(N2CCN(C(=O)COc3ccc4ccc(=O)oc4c3)CC2)c1C
i,-0.55,CC1Sc2ccc(S(=O)(=O)N3CCN(c4cccc(Cl)c4)CC3)cc2NC1=O (configuration not stated)
i,-0.67,CCOC(=O)C1CCN(C(=O)c2ccc3c(c2)NC(=O)/C(=C/c2ccccc2)S3)CC1
i,0.38,CC(C)c1ccc(-c2cc(C(=O)NN3CCN(C)CC3)c3ccccc3n2)cc1
i,1.53,O=C(Nc1ccccc1N1CCOCC1)C1CCN(S(=O)(=O)c2ccc(F)cc2)CC1
i,0.91,Cc1nc(N(CCO)C2CCCCC2)c2nnn(Cc3ccccc3)c2n1
i,4.03,O=C(CCc1ccccc1)NNC(=O)c1ccc(Cl)cc1
i,0.36,CCOc1cc(CNc2ccc(N3CCOCC3)cc2)cc(Br)c1OCC
i,1.36,CC(C(=O)OCC(=O)c1ccccc1)N1C(=O)C2C3CCC(C3)C2C1=O (configuration not stated)
i,0.53,Cc1ccc(C)c(N2CCN(S(=O)(=O)c3ccc(-c4ccc(=O)[nH]n4)o3)CC2)c1
i,0.04,O=C1NC(=O)/C(=C\c2ccsc2)N1
i,1.43,CC(=O)c1ccc(OCc2cc(C(=O)N3CCC(c4ccncc4)CC3)no2)cc1
i,1.61,O=S(=O)(c1ccccc1)N1CCC(O)(CSc2ccc(F)cc2)CC1
i,-0.36,CN1CCN(C(=O)c2ccc(CNS(=O)(=O)c3cccc(Cl)c3)cc2)CC1
i,0.07,CCCCN(CC)CCNC(=O)c1cc2c(-c3ccccc3F)nn(C)c2s1
i,-0.28,COc1cc(NC(=S)NC(=O)CCc2ccccc2)cc(OC)c1
i,1.99,CN1C(=O)Cc2cc(S(=O)(=O)N3CCOCC3)ccc21
